# RE007 growth inh: qHTS Assay for Inhibitors of the HIV-1 protein Vpr. S. pombe RE007 Vpr strain, BacTiter-Glo ATP luminescence, 24 h; control for the full effect not named in the record. Potency, µM (titrated, usually from 92.2 µM), for inactives: top-dose activity change, negative = less growth. 360,000 compounds, 0.21% hits; active = well fitted falling curve with a large enough effect; inconclusive = small, poorly fitted or top-dose-only effect; inactive = no such curve, though single readings can be large or run the other way;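 also: % is scaled to controls: 0 for no effect and ±100 for the full control effect; nearly all actives have a fitted effect of over 50% in size; the assay follows cell death caused by Vpr and the record does not say whether a fall means rescue or toxicity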
#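 Fission yeast strain RE007, carrying one chromosomally integrated HIV-1 vpr copy, was seeded at OD 0.01 in PMG+AL medium with 23 nL pinned compound. After 24 h at 30 °C and 99% humidity, viability was read by BacTiter-Glo luminescence.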
# SARS PLpro yeast: qHTS of Yeast-based Assay for SARS-CoV PLP; S. cerevisiae expressing SARS-CoV PLpro, growth rescue; control for the full effect not named in the record; Potency, µM (highest dose often 32.9 µM), for the others: at the top dose activity, positive = growth rescue; 330,000 compounds, 0.19% hits; AID 485353, 2010; also: 0% is about no effect; nearly all actives have a fitted effect of over 55% in size; growth read by luminescence after 48 h
# Cruzain noTriton: qHTS Assay for Promiscuous and Specific Inhibitors of Cruzain (without detergent) | Cruzipain (Trypanosoma cruzi), P25779 | purified cruzain, Z-FR-AMC fluorescence, no detergent | Potency, µM, for the others: max response, negative = inhibition, actives largely listed as inhibitors | 200,000 compounds, 2.3% hits | AID 1476, 2009; active = well fitted curve in the direction sought with a large enough effect; inconclusive = small, poorly fitted or top-dose-only effect, or another doubt; inactive = no such curve, though single readings can be large; an effect the other way counts as inactive or inconclusive;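 also: plate controls were enzyme without inhibitor for no effect and buffer without enzyme for full effect; nearly all actives have a fitted effect of over 40% in size; top concentration of the series not given in the record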
# Target sequence (P25779 123-467 limits assumed): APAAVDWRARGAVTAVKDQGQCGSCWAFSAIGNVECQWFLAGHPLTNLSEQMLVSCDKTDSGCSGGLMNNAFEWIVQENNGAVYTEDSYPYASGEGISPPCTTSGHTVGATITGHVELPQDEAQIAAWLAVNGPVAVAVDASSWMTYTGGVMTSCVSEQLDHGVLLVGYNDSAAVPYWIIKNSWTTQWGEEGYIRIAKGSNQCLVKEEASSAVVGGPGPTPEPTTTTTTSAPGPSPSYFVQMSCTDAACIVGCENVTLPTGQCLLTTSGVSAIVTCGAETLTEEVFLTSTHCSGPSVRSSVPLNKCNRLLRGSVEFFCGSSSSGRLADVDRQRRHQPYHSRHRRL
#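 Purified cruzain at 1.5 nM, pre-incubated 15 min with compound at room temperature in 100 mM sodium acetate pH 5.5, 5 mM DTT, 0.00005% Triton X-100. Reaction started with 2 uM Z-FR-AMC; AMC fluorescence increase over 60 s gives rate.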
# StopGo reporter: High Throughput Screening for Foot and Mouth Disease Virus Antivirals; AID 1159524, 2015; human cells with a luciferase reporter of 2A StopGo recoding; control for the full effect not named in the record; Potency, µM (titrated, usually from 57.9 µM), for the others: at the highest dose signal change, negative = less light; 410,000 compounds, 1.2% hits; active = well fitted falling curve with a large enough effect; inconclusive = small, poorly fitted or top-dose-only effect; inactive = no such curve, though single readings can be large or run the other way; tested in HEK293T cells; also: % is scaled to controls: 0 for no effect and ±100 for the full control effect; nearly all actives have a fitted effect of over 45% in size; luciferase light after 4 h
# Cruzain Triton: qHTS Assay for Promiscuous and Specific Inhibitors of Cruzain (with detergent); purified cruzain, Z-FR-AMC fluorescence, 0.01% Triton; Potency, µM, for inactives: max response, negative = inhibition, hits mostly inhibitors; 200,000 compounds, 0.43% hits; Cruzipain (Trypanosoma cruzi), P25779; active = well fitted curve in the direction sought with a large enough effect; inconclusive = small, poorly fitted or top-dose-only effect, or another doubt; inactive = no such curve, though single readings can be large; an effect the other way counts as inactive or inconclusive;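 also: plate controls were neutral wells for no effect and buffer without enzyme for full effect; nearly all actives have a fitted effect of over 40% in size; top concentration of the series not given in the record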
#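 Z-FR-AMC hydrolysis (2 uM substrate) by cruzain (1.5 nM) monitored kinetically at ex 360/em 450 nm after 15 min room-temperature compound exposure; 0.01% Triton X-100, pH 5.5, 5 mM DTT.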
# NS1 function inh: qHTS Assay for Inhibitors of Influenza NS1 Protein Function. S. cerevisiae slowed by influenza A NS1, growth recovery by OD600. Potency, µM (highest dose often 46.1 µM), for the others: at the top dose activity, positive = more growth. 270,000 compounds, 0.4% hits. AID 2326, 2010; also: actives are rising curves; nearly all actives have a fitted effect of over 50% in size
#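 Growth recovery, yeast-based: influenza A NS1 expressed in S. cerevisiae causes slow growth, and suppressors are detected by OD600. The parent strain without NS1 is used as positive control.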
# MARV entry inh: qHTS for inhibitors of binding or entry into cells for Marburg Virus; Marburg virus pseudotyped entry inhibition, cell reporter; control for the full effect not named in the record; about a third of the inactives were read at about 46 µM; Potency, µM (highest dose often 37.8 µM), for inactives: top-dose activity change, negative = inhibition, most hits filed as inhibitors; 300,000 compounds, 1.8% hits; AID 540276, 2011; active = well fitted inhibition curve with a large enough effect; inconclusive = small, poorly fitted or top-dose-only effect, or effect the other way; inactive = flat fitted curve, though single readings scatter; tested in HEK293 cells; about a fifth of its hits are not listed in these tables; also: % is scaled to controls: 0 for no effect and ±100 for the full control effect; luciferase read-out
# Lassa entry inh: qHTS for Inhibitors of binding or entry into cells for Lassa Virus; Potency, µM (highest dose often 37.9 µM), for the others: top-dose activity change, negative = inhibition, actives largely listed as inhibitors; 300,000 compounds, 1.2% hits; AID 540256, 2011; Lassa virus pseudotype entry inhibition, cell reporter; control for the full effect not named in the record; active means well fitted inhibition curve with a large enough effect; inconclusive means small, poorly fitted or top-dose-only effect, or effect the other way; inactive means flat fitted curve, though single readings scatter; tested in HEK293 cells; also: % is scaled to controls: 0 for no effect and ±100 for the full control effect; nearly all actives have a fitted effect of over 50% in size; luciferase read-out
# * = called active by the depositor; ? = inconclusive; / = not tested or not shown; & = joins results of further samples; [ ] = dose if it differs, or a comment. Unless noted, calls follow the shape of the dose curve; as a rule, active means well fitted rising curve with a large enough effect; inconclusive means small, poorly fitted or top-dose-only effect; inactive means no such curve, though single readings can be large or run the other way. Potency is read from the fitted curve at half-maximal effect.
mol	RE007 growth inh	SARS PLpro yeast	Cruzain noTriton	StopGo reporter	Cruzain Triton	NS1 function inh	MARV entry inh	Lassa entry inh
COc1ccc(N(C(C)=O)c2nc3ccccc3[nH]2)cc1	-9%	-2%	/	6%	/	-4%	/	/
CCOC(=O)Cc1nnc(NC(=O)C(CC)Sc2nc(C)cc(=O)[nH]2)s1 (stereo unspecified)	3%	2%	-1%	-1%	-5.1%	?	-13%	7%
O=C(NC(N1CCOCC1)C(Cl)(Cl)Cl)c1ccco1 (stereo unspecified)	-7%	-2%	/	-12%	/	-35%	4%[46.1 µM]	-10%
Cc1[nH]c2ccccc2c1-c1csc(NC(=O)CSCCO)n1	-14%	1%	/	-22%	/	2%	/	/
COc1ccc2oc(=O)c(C(=O)NCCc3c(C)[nH]c4ccc(Br)cc34)cc2c1	/	/	3%	?	-1.0%	/	-22%[46.1 µM]	5%[46.1 µM]
COCCCNC(=O)c1c(NC(=O)c2ccccc2Cl)n(Cc2ccccc2)c2nc3ccccc3nc12	-7%	6%	?	-3%	-1.8%	16%	3%	-5%
COc1ccc(Cl)cc1NC(=O)C(C)n1nnc2sc3c(c2c1=O)CCCC3 (stereo unspecified)	/	/	0%	-20%	0.1%	/	-8%[46.1 µM]	0%[46.1 µM]
O=C(COCC(=O)Nc1cccc(C(F)(F)F)c1)Nc1cccc(C(F)(F)F)c1	-1%	-1%	-9%	-2%	-9.3%	12%	?	21%
Cc1cc(C(F)(F)F)n(-c2nc(C(=O)Nc3ccccc3Oc3ccccc3)cs2)n1	/	-2%	9%	/	7.1%	-2%	2%	/
Cn1c2c(c(=O)n(C)c1=O)C(NC(=O)c1cccs1)(C(F)(F)F)C(=O)N2 (stereo unspecified)	-1%	-3%	-1%	15%	5.1%	2%	14%	10%
CC1CCN(C(=S)c2ccc(-c3ccc(Cl)cc3Cl)o2)CC1	-5%	5%	-23%	48%[activator]	-9.9%	5%	-2%	-8%
Cc1ccccc1C(=O)Nc1cccc(OCc2cc(=O)n3c(C)csc3n2)c1	/	/	-5%	-19%	-0.6%	/	11%[46.1 µM]	-6%[46.1 µM]
CC(=O)NS(=O)(=O)c1ccc(NC(=O)c2ccc3c(c2)OCO3)cc1	1%	0%	/	3%	/	3%	/	/
Cc1cc(NC(=O)NCC(F)(F)F)no1	-1%	-1%	/	10%	/	5%	-15%	-5%
CCSc1ccc(C(=O)Nc2ccc(-c3nc4ccc(C)cc4s3)cc2)cc1	/	/	8%	5%	-0.1%	/	/	?
COc1ccc(CNS(=O)(=O)c2cc(C(=O)Nc3cc(Cl)cc(Cl)c3)ccc2F)cc1	/	/	-2%	-9%	0.4%	/	/	-14%[46.1 µM]
COc1ccc(-c2cn3c(n2)sc2cc(C(=O)Nc4ccccc4F)ccc23)cc1	/	/	-6%	-10%	-2.3%	/	/	11%[46.1 µM]
COc1cc(SC#N)ccc1N=Cc1c(C)[nH]n(-c2ccc(C)c(C)c2)c1=O	-29%	-78%	-5%	13µM*	-5.2%	-4%	?	11µM*
Cc1ccc(CCNS(=O)(=O)c2ccc3c(c2)C(C)(C)C(=O)N3C)cc1	-14%	-4%	/	65%[activator]	/	1%	/	/
O=C1CSC(c2ccccc2)N1CC12CC3CC(CC(O)(C3)C1)C2 (stereo unspecified)	10%	3%	8%	-12%	1.7%	-6%	?	-8%
COc1cc(OC)c2ccc(=O)oc2c1C(CC(=O)N1CCCC1)c1ccc(N(C)C)cc1 (stereo unspecified)	-2%	1%	/	8%	/	-27%	/	/
COc1cc(/C=C/C(=O)OCC(=O)NCc2cccs2)ccc1OC(F)F	5%	23%	-16%	0%	-7.2%	7%	13%	0%
COc1nc(NCc2cccnc2)nc(NC2CCCCC2)n1	7%	-54%	7%	40%[activator]	-1.3%	-45%	-2%	14%
CCOc1ccc2ccccc2c1CNc1nnnn1C	5%	6%	/	1%	/	4%	3%[46.1 µM]	-29%[46.1 µM]
COc1ccc(NC(=O)CSc2ccc(-c3ccccn3)nn2)cc1OC	-19%	10µM*	6%	-9%	-0.4%	2%	?	?
Clc1ccc(-c2nnc(SCc3ccon3)o2)c(Cl)c1	?	-11%	-2%	-9%	-2.8%	-19%	?	?
O=C(CCn1c(=O)c2sccc2n(CC(=O)Nc2ccccc2)c1=O)NCc1ccccc1Cl	/	/	?	-10%	-4.0%	/	8%[46.1 µM]	6%[46.1 µM]
O=C(COc1ccc([N+](=O)[O-])cc1)NCC1(N2CCOCC2)CCCCC1	/	/	-6%	-1%	-2.4%	/	12%[46.1 µM]	-3%[46.1 µM]
COCCNC(=S)NC(=O)CC12CC3CC(CC(C3)C1)C2	-5%	?	8%	-12%	-9.6%	0%	14%	-6%
Cn1c(/C=C/c2ccc(Cl)cc2)nc2ccccc2c1=O	-11%	-6%	/	57%[activator]	/	-41%	5%	-23%

# The list goes on.
mol	RE007 growth inh	SARS PLpro yeast	Cruzain noTriton	StopGo reporter	Cruzain Triton	NS1 function inh	MARV entry inh	Lassa entry inh
O=C(CSc1nc2c(c(=O)n1-c1ccc(Cl)cc1)SCC2)NCc1ccco1	8%	/	-12%	5%	-9.1%	-12%	11%	5%
CC1=C(C(=O)N(C)C)C(c2ccc(Cl)c(Cl)c2)NC(=O)N1 (stereo unspecified)	-11%	4%	8%	1%	1.4%	-6%	15%	16%
CCOc1ccc(C2=C/C(=C/c3cccnc3)C(=O)O2)cc1	0%	2%	16%	17%	-1.9%	6%	-3%[46.1 µM]	11%
CCOc1ccc(NC(=O)c2oc3ccccc3c2NC(=O)c2ccc(OC)cc2OC)cc1	/	/	2%	-4%	-2.9%	/	-1%[46.1 µM]	-16%[46.1 µM]
O=C(COc1ccc(Cl)cc1)NCc1ccccc1	3%	11%	/	4%	/	-11%	/	/
COc1cccc(NC(=O)C(Cc2ccccc2)NC(=O)C2CCC(C)CC2)c1 (stereo unspecified)	8%	-34%	1%	-11%	-3.0%	7%	5%	-21%
CCn1c(SCc2ccccc2F)nnc1-c1ccncc1	11%	2%	/	9%	/	2%	0%[46.1 µM]	-5%
O=[N+]([O-])c1cc(Cl)ccc1Sc1cccc2cccnc12	1%	-2%	11%	/	-7.6%	3%	-2%	-13%
CN(C)C(=O)COC(=O)c1cc(Cl)cc(Cl)c1N	-15%	0%	12%	-6%	1.4%	-7%	10%	24%
CC(=O)c1cc(C#N)c(SCCC(C)C)nc1C	-6%	-1%	5%	6%	-7.0%	-73%	-1%	-2%
CN(CCOc1ccccc1)CC(=O)Nc1ccc(S(=O)(=O)N2CCCC2)cc1	-13%	-1%	/	-22%	/	-1%	/	/
O=C(CCC(=O)OCC(=O)c1ccc(Cl)cc1)Nc1ccc(Oc2ccccc2)cc1	/	/	?	18%	-0.1%	/	?	1%[46.1 µM]
CC(=O)N1CCN(c2cc(N3CCCC3)c(F)cc2[N+](=O)[O-])CC1	18%	0%	/	-5%	/	-5%	-27%[46.1 µM]	-24%[46.1 µM]
COc1ccc(-n2c(/C=C/c3cc(OC)c(OC)cc3OC)nc3cc4ccccc4cc3c2=O)cc1Cl	/	/	19%	-4%	1.4%	/	/	14%[46.1 µM]
CCC(C)N1C(=O)CCC1C(=O)N1CCN(c2ccc(F)cc2)CC1 (stereo unspecified)	-24%	13%	-2%	6%	3.6%	6%	27%	5%
CC(C)CCNC(=O)Nc1cc(C(=O)NCc2cccc(F)c2)ccc1N1CCCC1	/	/	-8%	15%	-2.4%	/	/	?
Cc1[nH]c2ccc(-c3nnc(SCC(=O)c4ccc(F)cc4)o3)cc2c1C	-5%	-5%	?	/	0.6%	-15%	-22%	9.2µM*
CC1=C(c2ccc(C)cc2)S(=O)(=O)NC1=NCCCN1CCN(c2ccc(F)cc2)CC1	/	/	-17%	-16%	-2.6%	/	2%[46.1 µM]	9%[46.1 µM]
CCC[C@H](CN[C@@H](CNC)[C@H](C)O)NCCc1ccc(OC)cc1	7%	0%	/	22%	/	-8%	/	/
CC(C)C(=O)N1CCN(c2ccc(NC(=O)COc3ccccc3[N+](=O)[O-])cc2)CC1	7%	-1%	/	16µM*	/	2%	?	?
CN(C)C(=O)N1CCC(C(=O)NCc2ccc(F)cc2)CC1	-2%	4%	-7%	-4%	4.7%	-8%	/	/
c1cncc(-c2nc(NCC3COc4ccccc4O3)c3ccccc3n2)c1 (stereo unspecified)	-1%	-22%	-12%	22µM*	-7.7%	-35%	?	-30%
CCc1nnc2c3ccccc3nc(Nc3cc(C)cc(C)c3)n12	/	/	-4%	-24%	0.5%	/	?	-25%[46.1 µM]
CCOc1ccccc1N1CCN(C(=S)Nc2ccc(S(=O)(=O)Nc3ncccn3)cc2)CC1	5%	?	/	-19%	/	-16%	27%	4%
CCC(=O)N1CCN(c2ccc(Cl)cc2NC(=O)c2ccc3c(c2)OCCO3)CC1	-2%	/	?	-27%	1.7%	-69%	-4%	13%
O=C(NCCCn1ccnc1)/C(=C/c1ccccc1)NC(=O)c1ccccc1	5%	0%	/	44%[activator]	/	-5%	-2%[46.1 µM]	19%
CCOc1ccc(OCC)c(C2C(C#N)=C(N)N(c3cccnc3)C3=C2C(=O)CC(C)(C)C3)c1 (stereo unspecified)	-2%	7%	-9%	-7%	-6.2%	-3%	-9%	20%
CC(=O)Nc1cc2c(cc1Br)OCCO2	13%	-1%	4%	-19%	1.0%	6%	-12%&-12%	12%
Cc1ncc([N+](=O)[O-])n1CCOC(=O)NC(NCc1ccccc1)C(Cl)(Cl)Cl (stereo unspecified)	2%	2%	3%	-22%	2.9%	9%	-11%	-7%
O=C(NCCc1ccc(F)cc1)C(=O)NCC(c1cccs1)S(=O)(=O)c1ccccc1 (stereo unspecified)	/	/	-9%	?	-1.7%	/	/	?
COC(=O)c1cc(N2CCNCC2)nc2ccccc12	-8%	0%	/	2%	/	-1%	/	/

# Screens (PubChem BioAssay)
